GLA inh pH 4.5 – qHTS Assay for Inhibitors of Human alpha-Galactosidase at pH 4.5. Alpha-galactosidase A (Homo sapiens), P06280. purified enzyme, 4-MU-alpha-Gal fluorescence, pH 4.5. activity change, negative = inhibition, % at 105 µM. 230,000 tested, under 10 active. AID 1467, 2008; inconclusive = small, poorly fitted or top-dose-only inhibition, or a rising curve; inactive = flat fitted curve, though single readings scatter; no compound was filed as active;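 also: 0% = full activity with enzyme and -100% = basal without enzyme; dose as in the result columns while the protocol names 77 µM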
Rango-impB inh – qHTS Assay for Inhibitors of Rango (Ran-regulated importin-beta cargo) - Importin beta complex formation. 340,000 compounds, 0.031% hits. Importin subunit beta-1 (Homo sapiens), Q14974. Potency, µM (doses to about 92.2 µM), for the others: top-dose inhibition of complex formation. Rango CFP/YFP FRET sensor + importin beta, 45 min; active = rising FRET ratio curve, often small or poorly fitted; inconclusive = mostly compound fluorescence or quenching in the first reads; inactive = flat curves in all reads;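 also: potency is read from the fitted curve at half-maximal effect; 0% = DMSO wells and 100% = buffer wells lacking importin beta; nearly all actives have a fitted effect of over 15% in size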
Target sequence (Q14974 whole entry, looked up): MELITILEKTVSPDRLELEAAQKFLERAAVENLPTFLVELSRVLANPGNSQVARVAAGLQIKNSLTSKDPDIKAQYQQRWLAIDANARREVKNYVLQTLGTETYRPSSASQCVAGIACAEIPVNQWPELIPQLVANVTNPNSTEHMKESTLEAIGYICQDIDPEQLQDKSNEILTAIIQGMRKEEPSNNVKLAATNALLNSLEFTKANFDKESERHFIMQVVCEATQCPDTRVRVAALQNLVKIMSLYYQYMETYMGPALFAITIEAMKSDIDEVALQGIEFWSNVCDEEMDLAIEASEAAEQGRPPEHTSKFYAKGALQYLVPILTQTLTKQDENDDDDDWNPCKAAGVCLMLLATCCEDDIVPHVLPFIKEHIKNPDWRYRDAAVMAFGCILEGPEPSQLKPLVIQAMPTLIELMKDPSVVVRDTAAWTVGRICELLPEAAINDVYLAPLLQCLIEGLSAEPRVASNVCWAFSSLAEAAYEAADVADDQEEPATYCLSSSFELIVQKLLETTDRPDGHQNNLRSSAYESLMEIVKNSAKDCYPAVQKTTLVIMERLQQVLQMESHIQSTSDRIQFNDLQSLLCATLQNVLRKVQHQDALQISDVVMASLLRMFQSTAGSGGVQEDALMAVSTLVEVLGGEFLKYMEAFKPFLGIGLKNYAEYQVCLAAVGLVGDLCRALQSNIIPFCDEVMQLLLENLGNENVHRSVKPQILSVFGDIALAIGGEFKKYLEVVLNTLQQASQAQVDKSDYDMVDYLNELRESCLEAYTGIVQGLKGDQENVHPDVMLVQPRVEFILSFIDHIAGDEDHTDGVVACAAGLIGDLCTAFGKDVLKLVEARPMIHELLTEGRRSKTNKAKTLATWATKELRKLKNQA
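FRET biosensor Rango (snurportin 1 IBB between N-terminal EYFP and C-terminal Cerulean), 50 nM in PBS/1 mM DTT/0.02% Tween-20/0.1% BSA, preincubated 5 min RT with compound; 0.125 microM importin beta added, 45 min RT, CFP/YFP FRET ratio read.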
miR-21 reporter – qHTS Assay for Modulators of miRNAs and/orActivators of miR-21; Potency, µM (top dose mostly 38.3 µM), for the others: at the highest dose reporter change, positive = more light; 340,000 tested, under 10 active; HeLa miR-21 FLuc reporter, luciferase, 48 h; active = well fitted rising curve with a large enough effect; inconclusive = small, poorly fitted or top-dose-only effect; inactive = no such curve, though single readings can be large or run the other way;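 also: % of control where 0% means no effect; miR-21 action dims this reporter so a rising signal means less miR-21 action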
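HeLa cells stably expressing CMV-driven firefly luciferase with a downstream miR-21 binding sequence, endogenously expressing miR-21, were treated with titrations (up to about 40uM final) for 48 hours at 37 degree Celsius. Luciferase luminescence was read after lysis.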
Rango dissoc inh – qHTS Assay for Inhibitors of RanGTP induced Rango (Ran-regulated importin-beta cargo) - Importin beta complex dissociation. Snurportin-1 (Homo sapiens) + GTP-binding nuclear protein Ran (Homo sapiens) + Importin …. Biochemical FRET Rango-importin beta, RanGTP-induced dissociation. Potency, µM (highest dose often 46.1 µM), for inactives: top-dose activity change, negative = inhibition. 340,000 compounds, 0.071% hits; active means falling FRET ratio curve, often poorly fitted, with flat reads before Ran was added; inconclusive means other falling curves, or compound fluorescence or quenching; inactive means flat or rising ratio curve;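 also: potency is read from the fitted curve at half-maximal effect; % of control where 0% means no effect; nearly all actives have a fitted effect of over 45% in size; -100% = wells without RanGTP and RCC1; the record marks most hits as doubtful in a second field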
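Rango FRET biosensor (snurportin-1 IBB flanked by N-terminal EYFP and C-terminal CFP10) at 0.1 uM, with 0.25 uM importin beta in PBS, 1mM DTT, 0.02% Tween-20, 0.1% BSA. 0.6 uM Ran, 2mM GTP and 0.2 uM RCC1 were then added for 45 min at room temperature. Inhibition read as loss of FRET rise.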
* marks the source's active call; other numbers are inactive results; u = inconclusive; x = not tested or not shown; & = joins results of further samples; [ ] = another dose, or the depositor's remark.

SMILES | GLA inh pH 4.5 | Rango-impB inh | miR-21 reporter | Rango dissoc inh
COc1cccc(-c2nc(CS(=O)(=O)CC(=O)NCC(C)c3ccccc3)c(C)o2)c1 (centres undefined) | x | 0.7% | -3% | -3%
Cn1c(SCC(=O)NCC2CCCO2)nnc1-c1ccco1 (centres undefined) | x | 1.8% | x | -4%
Cc1ccc(S(=O)(=O)c2ccc(Oc3cccc(C)c3)cc2)cc1 | -9 | 4.1% | -2% | 1%
CCn1c(SCc2cccc(OC)c2)nc2ccccc2c1=O | x | -5.2% | 10% | -7%
CC(C)CC(=O)Nc1cc2nn(-c3ccccc3)nc2cc1Cl | 4 | 1.0% | -35% | -2%
Cc1ccc(NC(=O)c2ccc(S(=O)(=O)N3CCOCC3)cc2)cc1 | x | 6.8% | -27% | 9%
O=C(CCN1CCN(C/C=C/c2ccccc2)CC1)Nc1ccccc1F | -6 | -0.2% | -3% | 11%
Cc1ccc(S(=O)(=O)CCN2C=CC(C(F)(F)F)=NCC2)cc1 | -1 | 0.0% | -6% | 3%
CC1CCCN(c2nc3c(c(=O)[nH]c(=O)n3C)n2CCCc2ccccc2)C1 (centres undefined) | -1 | 1.3% | -2% | -19%
COc1cccc(/C=N\NC(=O)c2ccc(Cn3cc(Br)c([N+](=O)[O-])n3)o2)c1O | -2 | -3.6% | 1% | 24%
CCOC(=O)c1ccc(COC(=O)CNS(=O)(=O)c2ccccc2)cc1 | 7 | -0.3% | 0% | -18%
Cc1ccc2c(c1)CCCN2C(=O)c1ccncc1 | 0 | 8.6% | -2% | -9%
Fc1ccc(CN2CCN(c3ncccn3)CC2)cc1 | 5 | 5.2% | -2% | 8%
COc1ccc(NC(=O)CCn2c(=O)c3cccn3c3ccccc32)cc1 | x | 0.5% | 2% | 2%
Cc1noc(C)c1C(=O)Nc1ccccc1-c1ccccc1 | 1 | 0.8% | -14% | 0%
Oc1cc(OCc2ccccc2)ccc1-c1[nH]ncc1-c1ccccc1 | -6 | 0.0% | -1% | -13%
CCOC(=O)C1=C(CSc2nc(CC)c(C)cc2C#N)OC(N)=C(C#N)C1c1ccc(OC)cc1 (centres undefined) | 2 | u | -14% | u
COc1cc(Nc2nc3ccc(Cl)cc3n3cnnc23)cc(OC)c1OC | x | 0.3% | 2% | 35%
COC(=O)NNC(=O)C(C)Oc1ccc(Cl)cc1Cl (centres undefined) | 7 | -1.3% | 0% | -12%
CCN(CC)S(=O)(=O)c1ccc2nc(CSc3nnnn3-c3ccc(O)cc3)[nH]c2c1 | 7 | -7.1% | -1% | -16%
Cc1ccc(CNC(=O)C(Cc2ccccc2)n2cccc2)cc1 (centres undefined) | -4 | -1.0% | -1% | 14%
Nc1nc(-c2ccccc2)[nH]c(=O)c1N | 8 | u | -30% | u
COc1ccc(C(=O)NCCN=C2NS(=O)(=O)c3ccccc32)cc1 | x | -2.2% | -1% | 16%
CCOc1ccc(Cl)cc1S(=O)(=O)N1CCN(c2ccc(F)cc2)CC1 | -10 | 2.1% | -6% | 4%
Cc1ccc(S(=O)(=O)c2nc(-c3ccccc3)oc2SCC(=O)NCC2CCCO2)cc1 (centres undefined) | x | 0.4% | 1% | -6%

Next structures follow:
SMILES | GLA inh pH 4.5 | Rango-impB inh | miR-21 reporter | Rango dissoc inh
Cc1nc2ccccc2n1CC(O)c1ccccc1 (centres undefined) | x | 5.0% | 7% | 24%
COc1ccc(C(CCNCc2ccc(OC(C)C)cc2)c2ccccc2OC)cc1 (centres undefined) | x | -0.9% | u | 16%
CCN(CC)S(=O)(=O)c1cccc(C(=O)N2CC(O)CC2C(=O)OC)c1 (centres undefined) | 5 | -1.2% | -4% | 3%
O=C(CSc1nnc(-c2cccs2)n1-c1ccccc1)NCc1ccc2c(c1)OCO2 | -7 | 0.8% | -3% | -12%
Nc1cc2c(cc1Cl)-c1ccc(Cl)cc1C2=O | x | 1.3% | x | -12%
CC(NC(=O)c1ccc(Cl)cc1Cl)C(c1ccccc1)N1CCOCC1 (centres undefined) | 5 | -0.1% | -10% | -2%
Cc1ccc(-c2cc(C(=O)NCCCN3CCOCC3)c3ccc(Cl)c(C)c3n2)cc1 | x | -6.4% | 0% | -8%
O=C(Cn1nnc2ccccc21)OCC(=O)c1ccccc1 | 7 | 0.7% | -10% | -15%
Cc1cc(SCCOc2ccc(Br)cc2)nc(N)n1 | -3 | 0.8% | -12% | 21%
O=C(O)COc1ccccc1C=NNC(=O)c1ccccc1NS(=O)(=O)c1cccs1 | x | 1.5% | x | -5%
Cc1ccsc1/C=N/NC(=O)c1ccc2c(c1)OCCO2 | -7 | -3.2% | 5% | -21%
CC1(C)C(C=C(Cl)Cl)C1C(=O)N(Cc1ccccc1Cl)C1CCS(=O)(=O)C1 (centres undefined) | -10 | 1.1% | 14% | 22%
ON(CCc1ccccn1)CCc1ccccn1 | x | u | x | -22%
O=C(Nc1cnn(Cc2ccccc2)c1)c1cc2nc(-c3ccco3)cc(C(F)(F)F)n2n1 | -8 | u | 0% | u
Cc1nc2cc3sc(C)nc3cc2s1 | 3[21.1 µM] | 3.6% | -37% | u
CN1CCN(Cc2nc3ccccc3c(=O)n2Cc2nc(-c3ccc4ccccc4c3)cs2)CC1 | 3 | 1.3%&-1.0% | u | 23%&2%
COc1ccccc1NC(=O)c1cc2c(=O)n(C)c3ccccc3c2n1C | 2 | 0.5% | 4% | -3%
COc1ccc(C2/C(=C(\O)c3ccc4c(c3)OCCO4)C(=O)C(=O)N2c2nc(C)c(C(C)=O)s2)cc1 (centres undefined) | x | u | -24% | u
N#CC1=C(N)Oc2n[nH]c(-c3cccs3)c2C1c1ccncc1 (centres undefined) | -1 | 2.1% | 0% | 5%
Cc1cccc(NS(=O)(=O)c2cccc(C(=O)N3CCCC(C(F)(F)F)C3)c2)c1 (centres undefined) | x | -0.7% | x | 35%
O=C(Nc1ccccc1)c1ccc(S(=O)(=O)N2CCOCC2)cc1 | 4 | -0.4% | -12% | -2%
CC1(C)CNC(=O)CC(C)(C)N1O | 3 | -5.7% | -4% | -3%
Cc1cccn(Cc2c(Cl)cccc2Cl)c1=O | x | 1.1% | x | 0%
CCN(CC)c1ccc2cc(C(N)=O)c(=N)oc2c1 | -18 | u | -60% | u
CSCC[C@H](NC(=O)CC(C)(C)C)c1nc2ccccc2[nH]1 | 0 | -2.1% | -2% | -4%

(listing goes on)
SMILES | GLA inh pH 4.5 | Rango-impB inh | miR-21 reporter | Rango dissoc inh
Cc1ccc(S(=O)(=O)CCC#N)cc1 | -14 | 2.1% | 1% | 1%
COc1ccc(C)cc1S(=O)(=O)N(C)CC(=O)NCc1ccco1 | -1 | -3.3% | -2% | -11%
CN(C(=O)CSc1cccc[n+]1[O-])C1CCCCC1 | x | 0.6% | x | 4%
NC(=O)c1ccccc1N/C=C/C(=O)c1ccc(Cl)cc1 | 0 | u | -39% | u
COc1cc(C(c2nnnn2C2CCCC2)N2CCN(C(=O)c3ccco3)CC2)cc(OC)c1OC (centres undefined) | x | 0.1% | 0% | 1%
O=C(O)c1cccc(N/N=C/c2ccc(OC(F)(F)F)cc2)c1 | x | -1.1% | -83% | -15%
COc1ccc(Cn2nnnc2C(c2cc3cccc(C)c3[nH]c2=O)N2CCOCC2)cc1 (centres undefined) | -6 | u | 0% | -16%
Cc1cccc(C(=O)Nc2cc(S(=O)(=O)N3CCOCC3)ccc2N2CCCCC2)c1 | x | 0.6% | x | 13%
COc1ccc(/C=C(\NC(=O)c2ccco2)C(=O)Nc2ccc(C(C)=O)cc2)cc1 | x | 0.6% | 0% | -2%
O=C(Nc1ccc(S(=O)(=O)NC2CCCC2)cc1)c1cnccn1 | 9 | -0.5% | -13% | 4%
O=S(=O)(Nc1ccc(-c2cnco2)cc1)c1ccccc1 | 6 | 0.6% | -13% | 8%
CN=c1scc(C)n1/N=C/c1ccc(O)c(O)c1O | -6 | -1.8% | -6% | -7%
O=C(/C=C/c1ccc(F)cc1)c1ccccc1Br | -1 | 1.6% | 12% | 15%
COc1ccc(C(=O)Nc2cccc(S(=O)(=O)NC3=NCCC3)c2)cc1OC | x | 3.0% | x | 17%
CC(=O)NCC1COc2ccccc2O1 (centres undefined) | -4 | -3.1% | -1% | 18%
COc1ccc(/C(N)=N/OC(=O)Cc2ccccc2)cc1 | 0 | 2.7% | -53% | 5%
CCN(CC)c1ccc(/C=N/NC(=O)c2ccc3c(c2)OCCO3)cc1 | x | u | -19% | u
Fc1ccc2cc(-c3ccsc3)ncc2c1 | x | -4.3% | x | 2%
O=C(COc1ccccc1)Nc1ccc2c(c1)nc1n2CCOC1 | 6 | 0.7% | -56% | 4%

Not all compounds are listed, so the mix of outcomes need not match the whole.
